NS1 inh = qHTS Assay for Inhibitors of Influenza NS1 Protein Function; AID 2326, 2010; S. cerevisiae slowed by influenza A NS1, growth recovery by OD600; Potency, µM (series often up to 46.1 µM), inactives show top-dose activity, positive = more growth; 270,000 tested, 0.4% active; active means well fitted rising curve with a large enough effect; inconclusive means small, poorly fitted or top-dose-only effect; inactive means no such curve, though single readings can be large or run the other way; also: nearly all actives have a fitted effect of over 50% in size
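Read-out: OD600 growth recovery of NS1-expressing budding yeast. Cells grown overnight at 30C in -URA glucose medium, washed, resuspended and diluted 1:100 in 2% galactose assay medium, pH 6.0. Same strain lacking NS1 served as positive control.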
Cruzain inh noDet = qHTS Assay for Promiscuous and Specific Inhibitors of Cruzain (without detergent); Potency, µM, without a hit: max response, negative = inhibition, most hits filed as inhibitors; 200,000 tested, 2.3% active; purified cruzain, Z-FR-AMC fluorescence, no detergent; Cruzipain (Trypanosoma cruzi), P25779;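 also: plate controls were enzyme without inhibitor for no effect and buffer without enzyme for full effect; nearly all actives have a fitted effect of over 40% in size; top concentration of the series not given in the record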
Target sequence (P25779 123-467 limits assumed): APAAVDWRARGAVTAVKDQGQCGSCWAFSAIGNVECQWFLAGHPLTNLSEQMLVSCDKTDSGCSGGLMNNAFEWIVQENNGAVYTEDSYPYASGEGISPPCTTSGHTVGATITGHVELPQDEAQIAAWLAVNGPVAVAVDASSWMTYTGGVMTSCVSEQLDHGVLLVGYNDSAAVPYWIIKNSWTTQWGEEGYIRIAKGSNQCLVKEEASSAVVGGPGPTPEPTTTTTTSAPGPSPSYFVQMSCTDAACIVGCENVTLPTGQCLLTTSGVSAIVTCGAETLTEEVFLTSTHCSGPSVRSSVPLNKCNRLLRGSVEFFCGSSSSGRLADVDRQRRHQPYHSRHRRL
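Detergent-free condition (0.00005% Triton X-100) in acetate buffer pH 5.5 with DTT. 1.5 nM enzyme and compound were pre-mixed 15 min, then 2 uM Z-FR-AMC substrate added; reaction progress from fluorescence change between first and third reads (60 s).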
MARV entry inh = qHTS for inhibitors of binding or entry into cells for Marburg Virus | Marburg virus pseudotyped entry inhibition, cell reporter; control for the full effect not named in the record; about a third of the inactives were read at about 46 µM | Potency, µM (series often up to 37.8 µM), without a hit: top-dose activity change, negative = inhibition, most hits filed as inhibitors | 300,000 tested, 1.8% active | AID 540276, 2011; active = well fitted inhibition curve with a large enough effect; inconclusive = small, poorly fitted or top-dose-only effect, or effect the other way; inactive = flat fitted curve, though single readings scatter; tested in HEK293 cells; about a fifth of its hits are not listed in these tables; also: % is scaled to controls: 0 for no effect and ±100 for the full control effect; luciferase read-out
Cruzain Triton = qHTS Assay for Promiscuous and Specific Inhibitors of Cruzain (with detergent); AID 1478, 2009; purified cruzain, Z-FR-AMC fluorescence, 0.01% Triton; Potency, µM, for the others: max response, negative = inhibition, hits mostly inhibitors; 200,000 tested, 0.43% active; Cruzipain (Trypanosoma cruzi), P25779;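 also: plate controls were neutral wells for no effect and buffer without enzyme for full effect; nearly all actives have a fitted effect of over 40% in size; top concentration of the series not given in the record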
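Detergent-containing run (0.01% Triton X-100) in acetate buffer pH 5.5 with 5 mM DTT: enzyme at 1.5 nM final, 15 min compound preincubation at room temperature, then 2 uM Z-FR-AMC substrate. Activity taken as 60 s fluorescence increase at 360/450 nm.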
StopGo reporter = High Throughput Screening for Foot and Mouth Disease Virus Antivirals. human cells with a luciferase reporter of 2A StopGo recoding; control for the full effect not named in the record. Potency, µM (titrated, usually from 57.9 µM), for inactives: at the highest dose signal change, negative = less light. 410,000 tested, 1.2% active. AID 1159524, 2015; active = well fitted falling curve with a large enough effect; inconclusive = small, poorly fitted or top-dose-only effect; inactive = no such curve, though single readings can be large or run the other way; tested in HEK293T cells; also: % is scaled to controls: 0 for no effect and ±100 for the full control effect; nearly all actives have a fitted effect of over 45% in size; luciferase light after 4 h
LASV entry inh = qHTS for Inhibitors of binding or entry into cells for Lassa Virus | 300,000 tested, 1.2% active | Lassa virus pseudotype entry inhibition, cell reporter; control for the full effect not named in the record | Potency, µM (highest dose often 37.9 µM), for inactives: at the top dose activity change, negative = inhibition, usual class: inhibitors; active means well fitted inhibition curve with a large enough effect; inconclusive means small, poorly fitted or top-dose-only effect, or effect the other way; inactive means flat fitted curve, though single readings scatter; tested in HEK293 cells; also: % is scaled to controls: 0 for no effect and ±100 for the full control effect; nearly all actives have a fitted effect of over 50% in size; luciferase read-out
SARS PLpro yeast = qHTS of Yeast-based Assay for SARS-CoV PLP. S. cerevisiae expressing SARS-CoV PLpro, growth rescue; control for the full effect not named in the record. Potency, µM (doses to about 32.9 µM), for the others: top-dose activity, positive = growth rescue. 330,000 tested, 0.19% active; active means well fitted rising curve with a large enough effect; inconclusive means small, poorly fitted or top-dose-only effect; inactive means no such curve, though single readings can be large or run the other way; also: 0% is about no effect; nearly all actives have a fitted effect of over 55% in size; growth read by luminescence after 48 h
RE007 growth inh = qHTS Assay for Inhibitors of the HIV-1 protein Vpr; S. pombe RE007 Vpr strain, BacTiter-Glo ATP luminescence, 24 h; control for the full effect not named in the record; Potency, µM (doses to about 92.2 µM), without a hit: at the top dose activity change, negative = less growth; 360,000 tested, 0.21% active; active = well fitted falling curve with a large enough effect; inconclusive = small, poorly fitted or top-dose-only effect; inactive = no such curve, though single readings can be large or run the other way;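 also: % is scaled to controls: 0 for no effect and ±100 for the full control effect; nearly all actives have a fitted effect of over 50% in size; the assay follows cell death caused by Vpr and the record does not say whether a fall means rescue or toxicity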
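Fission yeast RE007 carrying one integrated HIV-1 vpr copy, seeded at OD 0.01 in PMG+AL medium with 23 nL pinned compound. Grown 24 h at 30 degrees; viability read by BacTiter-Glo luminescence after 5 min.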
* = called active by the depositor; ? = inconclusive; nt = no result given; & = joins results of further samples; [ ] = another dose, or the depositor's remark. Unless noted, calls follow the shape of the dose curve; as a rule, active = well fitted curve in the direction sought with a large enough effect; inconclusive = small, poorly fitted or top-dose-only effect, or another doubt; inactive = no such curve, though single readings can be large; an effect the other way counts as inactive or inconclusive. Potency is read from the fitted curve at half-maximal effect.

SMILES	NS1 inh	Cruzain inh noDet	MARV entry inh	Cruzain Triton	StopGo reporter	LASV entry inh	SARS PLpro yeast	RE007 growth inh
CCNC(=O)COC(=O)C1CCC(=O)N(c2ccc(OC)cc2)C1c1ccc(OC)cc1 (stereo not given)	?	-0.2%	-19.8%	6.2%	11.3%	-14.7%	8.3%	-0.9%
COC(=O)c1ccc(Cl)c(NC(=O)NC23CC4CC(CC(C4)C2)C3)c1	5.9%	11.4%	-4.7%	4.7%	?	?	14.8%	-14.1%
O=C(Nc1ccc(F)cc1)C1CCN(c2nc3ccccc3nc2C(F)(F)F)CC1	nt	6.2%	nt	-0.2%	0.0%	14.9%[46.1 µM]	nt	nt
CC(=O)Nc1ccc(NC(=O)C(C)OC(=O)c2cccc(S(=O)(=O)N3CCCC3)c2)cc1 (stereo not given)	nt	nt	10.3%	nt	-11.6%	11.7%	0.3%	-4.3%
COc1ccccc1C(=O)Nc1ccc(C(=O)OCc2cc(=O)n3ccsc3n2)cc1	nt	5.1%	nt	1.0%	-27.8%	-1.2%[46.1 µM]	nt	nt
CNC(=O)c1nn(C)c(=O)[nH]c1=O	nt	nt	?	nt	0.6%	-8.5%[46.1 µM]	nt	7.8%
Nc1cc2c(cc1Cl)-c1ccc(Cl)cc1C2	nt	nt	26.1%	nt	34.4%[activator]	?	nt	?
NC(=S)N/N=C/c1c[nH]c2ccccc12	0.9%	nt	nt	nt	-5.0%	nt	3.5%	19.2%
COc1ccc2oc(=O)c(C(=O)N3CCCC3)cc2c1	2.3%	nt	1.0%[46.1 µM]	nt	-15.0%	38.8%	1.4%	-5.7%
Cc1ccc(O)c(NC(=O)c2nc3nc(C)cc(C(F)F)n3n2)c1	nt	19.1%	14.9%[46.1 µM]	-1.9%	-9.3%	?	nt	nt
CCOC(=O)c1cc(-c2ccccc2)n(CCC(=O)NCc2ccccc2Cl)c1C	nt	-10.0%	nt	-5.8%	0.0%	-30.0%[46.1 µM]	nt	nt
CC1(C)CN(c2ccc(CC#N)cc2)C1=O	nt	nt	-8.0%[46.1 µM]	nt	2.4%	1.0%	-0.1%	19.5%
Cc1ccc(CN(CC2CCCO2)C(=O)CN2C(=O)C(C(C)C)Oc3ccccc32)o1 (stereo not given)	-11.2%	?	?	-2.7%	?	-3.5%	1.3%	-1.5%
COC(=O)c1c(NC(=O)c2ccco2)sc2c1C(C(=O)OC)CC2 (stereo not given)	-12.4%	1.8%	?	-14.8%	-29.5%	?	-1.3%	7.5%
COCCCNc1nc(N)c([N+](=O)[O-])c(Nc2ccccc2OC)n1	-0.8%	nt	?	nt	-20.7%	9.3%	-0.3%	4.0%
CCn1c(CN2CCCCC2)nc2cc(NC(=O)COc3ccc(C(C)(C)C)cc3)ccc21	nt	-13.4%	?	-0.5%	?	-2.8%[46.1 µM]	nt	nt
Cn1cc(C(=O)Nc2ccc(C#N)cc2)c2ccccc2c1=O	-1.2%	-4.4%	?	-3.4%	-2.1%&-28.3%	10.6%	-0.7%	-8.2%
COCCN(C(=O)COC(=O)c1ccc(-c2ccccc2)cc1)c1c(N)n(Cc2ccccc2)c(=O)[nH]c1=O	nt	nt	1.2%	nt	-14.4%	-4.0%	nt	-1.0%
COc1ccc(Cc2nc3ccc(C(=O)NCCc4ccccc4)cc3o2)cc1	nt	6.7%	nt	-1.5%	-26.1%	-17.5%[46.1 µM]	nt	nt
O=C(Cn1c(=O)sc2ccccc21)Nc1ccc(S(=O)(=O)N2CCCCC2)cc1	?	31.6µM*	5.7%&5.7%	-4.9%	-10.4%	-3.7%	21.5%	10.4%
O=C(c1ccc(C(F)(F)F)cc1)C1CCCN(C(=O)CCc2cnccn2)C1 (stereo not given)	-0.9%	nt	-0.6%[46.1 µM]	nt	5.9%	12.0%[46.1 µM]	-0.9%	-8.4%
CCCn1c(N)c(N(CCOC)C(=O)c2cccc(S(=O)(=O)N3CCCc4ccccc43)c2)c(=O)[nH]c1=O	nt	nt	21.1%	nt	-9.8%	9.1%	0.0%	-13.6%
Cc1nc(-c2ccc(S(=O)(=O)N(Cc3ccccc3)C(C)C)cc2)co1	nt	-4.0%	nt	-5.7%	-19.2%	-14.1%[46.1 µM]	nt	nt
CCOc1cc(Br)cc(/C=C2\SC(=Nc3ccccc3)NC2=O)c1O	-5.1%	nt	nt	nt	0.1%	nt	-2.2%	0.0%
O=C(CN(CC1CCCO1)C(=O)CNS(=O)(=O)c1ccccc1)NCc1ccc(F)cc1 (stereo not given)	-20.3%	nt	-4.5%	nt	5.7%	-7.9%	0.1%	10.8%
COCCNC(=O)NC(=O)COC(=O)c1cc([N+](=O)[O-])ccc1Sc1nc(C)cs1	6.1%	-3.8%	4.2%	-7.7%	-15.7%	16.2%	-0.7%	9.3%
Cc1ccc(S(=O)(=O)NCc2ccccc2)cc1C(=O)N1CCCCCCC1	nt	nt	nt	nt	6.7%	-30.8%	0.8%	8.4%
CC1(C)CC(=O)C(N=Nc2cccc(S(=O)(=O)N3CCOCC3)c2)=C(O)C1	0.2%	nt	nt	nt	-8.6%	nt	-0.4%	17.6%
c1ccc(CCCCc2ccccn2)cc1	nt	nt	?	nt	29.9%	9.7%[46.1 µM]	nt	5.0%
CNC(=O)C1Cc2ccccc2CN1S(=O)(=O)c1cccs1 (stereo not given)	4.5%	-9.4%	?	0.1%	-19.1%	9.5%	-4.6%	4.9%
COc1ccc(S(=O)(=O)N2CCC(C(=O)NC3CCCCC3C)CC2)cc1 (stereo not given)	-12.6%	nt	2.2%[46.1 µM]	nt	-6.8%	nt	1.2%	-9.5%
COc1ccccc1OCc1ccc(C(=O)N(C)C)o1	-8.9%	2.6%	?	3.6%	22.8%	8.2%	0.6%	11.3%
O=C(CSc1nnc(C2CC2)n1C1CC1)c1cc(F)ccc1F	nt	nt	?	nt	21.3%	0.3%	1.3%	2.7%
CCc1cc(C(=O)COc2ccc(F)cc2)c(O)cc1O	-48.2%	nt	?	nt	18.6%	1.4%	-2.4%	-5.5%
Cc1ccc(-n2c(SCC(=O)NCCN3C(=O)CSC3=O)nnc2-c2ccccc2F)cc1	-5.1%	12.1%	3.6%	-1.2%	-11.1%	-21.9%	4.6%	-3.2%
COC(=O)c1cc2oc3ccccc3c2n1CC(=O)N1CCCc2ccccc21	3.9%	-1.3%	5.9%	-19.3%	-3.1%	-11.1%	-1.4%	-9.2%
CCOc1ccc(N(C)S(=O)(=O)c2cc(-c3cnc(C)o3)ccc2OC)cc1	nt	?	nt	-8.7%	0.0%	2.1%[46.1 µM]	nt	nt
COc1cccc(-c2cccc(NC(=O)C3CCN(Cc4ccc(CO)o4)CC3)c2)c1	20.0%	nt	-0.1%[46.1 µM]	nt	-9.0%	20.8%[46.1 µM]	-0.3%	-0.3%
Cc1cc(=O)oc2cc(OC(C)C(=O)NCc3ccccn3)ccc12 (stereo not given)	8.8%	nt	nt	nt	-8.3%	nt	0.5%	-3.6%
CSCC[C@H](N)C(=O)N1CCC(C(=O)N[C@@H](C)C(=O)NCc2ccc(F)cc2)CC1	-16.1%	nt	nt	nt	-14.1%	nt	1.9%	4.4%
COc1cc(OC)c2c(-c3ccccc3)cc(=O)oc2c1C(CC(=O)N1CCN(c2ccccc2)CC1)c1ccc(N(C)C)cc1 (stereo not given)	1.5%	nt	nt	nt	-10.3%	nt	0.3%	-16.8%
Cc1ccc(NC(=O)CN(C)C(=O)c2cccc(Br)c2)cc1	6.8%	nt	12.1%[46.1 µM]	nt	2.0%	-21.9%[46.1 µM]	-1.0%	4.2%
COc1ccc(/C=N\NC(=O)c2ccccc2)cc1COc1ccc(F)cc1	-40.3%	nt	nt	nt	-29.4%	nt	4.5%	-7.2%
Cc1ccccc1NC(=O)c1c(C)oc2ccc(O)c(CN3CCC(C)CC3)c12	nt	5.3%	?	-5.3%	0.0%	?	nt	nt
O=C(Nc1ccc2oc(-c3ccccc3Cl)nc2c1)c1cncc(Br)c1	-9.8%	-27.9%	?	-1.5%	61.3%[activator]	?	-7.6%	-10.6%
Cc1nn(-c2ccccc2)nc1C(=O)NNC(=O)c1ccc(C(F)(F)F)cc1	-7.7%	nt	?	nt	-8.0%	-3.4%[46.1 µM]	0.1%	3.4%
COc1ccc2cc(C(C)=O)c(=O)oc2c1	10.7%	-2.1%	29.5%	-10.1%	-7.6%	0.2%	-20.2%	1.2%
CC(NC(=O)c1cc(F)c(F)c(F)c1F)c1ccc(-n2ccnc2)cc1 (stereo not given)	-5.8%	nt	nt	nt	-20.9%	nt	-12.7%	-8.1%
Cc1c(C(=O)NCc2ccccc2Cl)sc2nc3n(c(=O)c12)CCC3	nt	0.2%	nt	0.5%	28.8%	1.2%[46.1 µM]	nt	nt
O=C(COC(=O)C1CCN(c2ccc(C(F)(F)F)cn2)CC1)Nc1cccc(F)c1	nt	nt	20.5%[46.1 µM]	nt	9.6%	4.2%	0.0%	9.2%
O=C(CN1CCN(S(=O)(=O)c2ccc(F)cc2)CC1)Nc1ccc(F)cc1F	-13.1%	nt	nt	nt	61.6%[activator]	nt	-2.2%	-6.6%
O=C(NCCCO)C(=O)c1c(-c2ccccc2)cc2ccccn12	0.2%	nt	?	nt	-11.4%	17.3%[46.1 µM]	1.7%	3.6%

Single records (already shown). Screens in order: NS1 inh | Cruzain inh noDet | MARV entry inh | Cruzain Triton | StopGo reporter | LASV entry inh | SARS PLpro yeast | RE007 growth inh
COc1ccccc1OCc1ccc(C(=O)N(C)C)o1 is listed with -8.9% | 2.6% | ? | 3.6% | 22.8% | 8.2% | 0.6% | 11.3%
CNC(=O)c1nn(C)c(=O)[nH]c1=O is listed with nt | nt | ? | nt | 0.6% | -8.5%[46.1 µM] | nt | 7.8%

Screens deposited in PubChem BioAssay by National Center for Advancing Translational Sciences (NCATS).
